# Env fusion inh: HIV envelope-mediated fusion inhibition; actives 1.1% (n = 360,000); inhibition, % at 12.3 µM; HeLa-JRFL Env/CEM21 cell fusion, luciferase;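 active = mean replicate inhibition score of at least 50 and every replicate individually at or above 50; inconclusive = only one of the two criteria met; inactive = mean below 50 and not all replicates reaching 50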;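 also: 0% = plate neutral controls and 100% = maraviroc near 300 nM; one replicate is shown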
# eIF4H FP inh: inhibitors of RNA binding by human eIF4H; eIF4H fluorescence polarization binding assay; inhibition, % at 35 µM; actives 0.94% (n = 290,000); AID 2012;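 active = 50% or more with normal probe brightness, or confirmed in later tests; inconclusive = above 50% with abnormal brightness, or retests that disagree; inactive = below 50% or failed in later tests; about a fifth of its hits are not listed in these tables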;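 also: calls also rest on retests at 20 µM and on dose response follow-up; 0% = protein and probe with vehicle and 100% = probe without protein; strong numbers were not always called active; many hits fall short of the cut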
# CSC inhib: blocks cancer stem cells; cancer stem cell-like cells viability, luminescence; inhibition, % at 7.5 µM; actives 1.1% (n = 300,000); AID 2717;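 active = mean at 75% or more and at least half the replicates too; inconclusive = mean and replicates disagree; tested in HMLE shEcad cells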;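 also: 0% = median of negative and 100% = median of positive control wells; the first replicate is given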
# Rce1 inh: yeast Ras-converting enzyme inhibition; Q03530; yeast membranes, quenched prenylated peptide cleavage fluorescence; calls only; actives 0.27% (n = 290,000); AID 2563;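 active = fall in fluorescence gain of 50% or more versus controls, with final raw signal at or below 3038400; inconclusive = same 50% fall but final raw signal above 3038400; inactive = fall in fluorescence gain under 50%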;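 also: plate controls were neutral control wells for no effect and wells lacking membranes for full effect; tested at 10 µM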
# PABP polyA inh: PABP-poly(A) binding inhibition. PABP-poly(A) RNA binding, fluorescence polarization. inhibition, % at 35 µM. actives 1% (n = 290,000). P11940;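 active = 50% or more with normal probe brightness, or confirmed in later tests; inconclusive = above 50% with abnormal brightness, or retests that disagree; inactive = below 50% or failed in later tests; about a fifth of its hits are not listed in these tables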;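 also: calls also rest on retests at 20 µM and on dose response follow-up; controls were probe without protein and protein plus probe with vehicle; some compounds called inactive have numbers as strong as hits; many hits fall short of the cut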
# Target sequence (P11940 whole entry, looked up): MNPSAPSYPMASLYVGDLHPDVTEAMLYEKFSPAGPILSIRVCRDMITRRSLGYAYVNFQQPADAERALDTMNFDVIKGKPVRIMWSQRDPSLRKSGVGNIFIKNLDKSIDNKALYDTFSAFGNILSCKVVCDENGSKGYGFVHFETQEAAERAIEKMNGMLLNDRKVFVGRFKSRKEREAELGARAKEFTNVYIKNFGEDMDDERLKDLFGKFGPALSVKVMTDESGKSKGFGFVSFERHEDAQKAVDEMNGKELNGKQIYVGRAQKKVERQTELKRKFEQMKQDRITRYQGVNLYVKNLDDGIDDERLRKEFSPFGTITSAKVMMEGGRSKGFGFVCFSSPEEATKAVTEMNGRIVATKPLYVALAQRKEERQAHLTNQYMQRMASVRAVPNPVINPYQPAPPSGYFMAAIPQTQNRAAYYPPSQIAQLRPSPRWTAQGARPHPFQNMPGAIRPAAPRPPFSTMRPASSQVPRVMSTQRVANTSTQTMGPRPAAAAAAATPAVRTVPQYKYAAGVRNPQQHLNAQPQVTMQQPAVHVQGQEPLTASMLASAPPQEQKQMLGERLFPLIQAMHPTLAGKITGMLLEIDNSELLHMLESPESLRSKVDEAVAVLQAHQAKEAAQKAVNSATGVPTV
# UUG fidelity: yeast start codon fidelity modulation. S. cerevisiae UUG-firefly luciferase reporter, luminescence/redox ratio. activity score, % at 18.7 µM. actives 0.13% (n = 350,000);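 active = replicate mean at a twofold rise or more, about +100% in these data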;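 also: firefly luciferase made from a UUG start codon reports start codon fidelity; reporter light over untreated wells divided by growth signal over untreated wells; some hits fall short of that in this replicate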
# MT1-MMP act inh: inhibitors of human MT1-MMP activation; HT1080 RFP-PRO-GFP cells, GFP/RFP ratio fluorescence, overnight; percent of plate control window, DMSO zero; actives 0.061% (n = 360,000); GFP/RFP ratio change, % at 20 µM; P50281; AID 651647;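 active = GFP/RFP ratio change of at least 30% with cell ATP level not reduced by more than half and red fluorescence within 50% of control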; also: strong numbers were not always called active
#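 Compound: 20 µM single dose, 1% DMSO / System: HT1080 RFP-PRO-GFP cells / Controls: DMSO and RFP-L50D-GFP cell wells / Read-out basis: GFP/RFP fluorescence ratio / Schedule: overnight compound exposure at 37 °C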
# eIF4H FP inh retest: also measured in eIF4H FP inh; calls as there; inhibition, %; compound at 20 µM; confirmation average;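 mean of two retest wells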
# PABP polyA inh retest: second read-out of PABP polyA inh, no call of its own (marks repeat the call); inhibition, %; compound at 20 µM; confirmation repeats;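 mean of two retest wells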
# MT1-MMP act inh RFP: second read-out of MT1-MMP act inh, no call of its own (marks repeat the call); RFP signal change, %; measured here: RFP expression control read;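 0 = vehicle wells; hits needed this value within 50% of zero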
# * marks the source's active call; other numbers are inactive results; i = inactive; ? = inconclusive; . = not tested or not shown; & = joins results of further samples; [ ] = dose if it differs, or a comment. A portion of the library; count on the stated rates, not on these rows.
SMILES,Env fusion inh,eIF4H FP inh,CSC inhib,Rce1 inh,PABP polyA inh,UUG fidelity,MT1-MMP act inh,MT1-MMP act inh RFP,others
COC(=O)c1sccc1NC(=O)/C=C/c1c(Cl)cccc1Cl,.,0,-4,i,0,.,-4,-2,
C=CCN1C(c2ccc(OCC)cc2)=CS/C1=C(\C#N)c1nnc2n1CCCCC2,.,-4,3,.,13,-19,5,-5,
COc1ccc(-c2cc3nc4n(c(=O)c3s2)CCCCC4)cc1,-225,-11,32,i,5,.,2,-10,
CC[C@@]1(C(=O)OC)N[C@H](CN(C)C(=O)c2ccc(C(C)(C)C)cc2)[C@@H]2C(=O)N(Cc3ccccc3)C(=O)[C@@H]21,79*,.,.,.,.,-6,0,-3,
CCOC(=O)c1c(S(=O)(=O)NC2CCN(C(=O)OCC)CC2)c(C)n(C)c1C,6,-5,20,i,0,-22,5,3,
Clc1ccc(-c2n[nH]c3c2CCC3)cc1Cl,.,-6,-14,i,1,-16,-2,1,
Cc1cc(/C=C2\SC(=S)N(C)C2=O)c(C)n1-c1ccc(O)cc1,0,?,41,i,?,.,-139,-21,
CCO/N=C(/C)c1c(O)cc(-c2ccccc2)n(-c2ccccc2)c1=O,-9,10,24,i,-3,.,0,5,
Cc1ccccc1N(C(=O)c1snc(C(N)=O)c1N)C(C(=O)NCc1ccccc1)c1ccc(O)cc1 (stereo not given),13,-3,4,i,0,-8,-11,-9,
O=C(Nc1ccc(-c2nc3ccccc3o2)cc1)c1ccc(N2CCOCC2)c([N+](=O)[O-])c1,.,-1,7,i,-4,.,0,-10,
N[C@@H](Cc1ccccc1)C(=O)N1CCOCC1,18,.,6,i,.,-14,0,-2,
C[C@H](CO)N1C[C@H](C)[C@@H](CN(C)Cc2ccccc2)Oc2c(NS(=O)(=O)c3ccc(F)cc3)cccc2C1=O,-21[16.7 µM],.,-15,.,.,10&2,-2,1,
CN(CC(=O)NCCN1CCOCC1)S(=O)(=O)c1ccc(F)cc1,4,-14,-15,i,-10,-12,0,0,
CN1CCC(OC(=O)c2ccco2)CC1,0,-11,-4,i,-4,-2,-2,3,
O=C(NC1CCCCC1)c1ccccc1NC(=S)NC(=O)C1CC1,14,-8,-5,i,3,-11,2,4,
Cn1ncc2c(Nc3ccc(Cl)c(Cl)c3)ncnc21,-6,.,-2,i,.,-4,1,-1,
CC1CCCN(CCCN2C(=O)C3C(C(=O)Nc4ccc(Cl)cc4)C4C=CC3(O4)C2C(=O)NC2CCCCC2)C1 (stereo not given),5,-6,-7,.,-3,-4,3,2,
COc1cccc(NS(=O)(=O)NC(=O)c2c[nH]c3ccccc23)c1,2,-8,30,i,9,-2,4,4,
O=C(Nc1ccc2c(c1)OCO2)c1ccc(Cl)cc1Cl,-326,4,0,i,14,-32,0,2,
COc1ccccc1N1CCN(S(=O)(=O)c2ccc3c4c(cccc24)C(=O)N3)CC1,.,-12,-22,.,0,-4,3,-1,
CCN1CCC(CNCc2cn(-c3ccc(OC)cc3)nc2-c2ccccc2Cl)C1 (stereo not given),9,-4,8,i,14,.,0,0,
COc1ccc(OC)c(CNC(=O)C2CCC(=O)N(CCCN3CCCC3=O)C2)c1 (stereo not given),-21,-11,-15,i,-3,2,1,0,
CC(=O)Nc1sc(C)c(C)c1CN1CCN(Cc2ccccc2)CC1,-8,7,-8,i,8,-15,0,3,
O=C(CCC(=O)c1ccc(Oc2ccccc2)cc1)Nc1ccc(C(=O)O)cc1,8,8,-12,i,2,-5,-1,-2,
CC(C)CCSc1nnc(Cn2c(=O)sc3ccccc32)n1C,-10,-1,-7,i,4,-8,4,0,
CC(C)NC(=O)Nc1ccc2c(c1)C(=O)N([C@H](C)CO)C[C@H](C)[C@@H](CN(C)Cc1ccc(C(F)(F)F)cc1)OCCCC[C@H](C)O2,-14,.,.,.,.,0&8,2,-3,
CCN(CC(=O)Nc1ccccc1C(F)(F)F)C(=O)/C=C/c1ccc(Cl)c([N+](=O)[O-])c1,19,.,-5,i,.,-15,-1,4,
CN1OC[C@@H]2CN(S(=O)(=O)c3ccccc3)[C@H](c3cccc(Br)c3)C[C@@H]21,-14,.,.,.,.,-5,2,4,
O=C(O)CS(=O)(=O)c1ccc(C(F)(F)F)cn1,-3,-4,0,i,2,.,0,2,
COc1ccc(CCN2C(=O)c3ccncc3C2=O)cc1OC,.,-2,-10,i,1,0,2,5,
CC(NC(=O)C1CCN(S(=O)(=O)c2ccccc2)CC1)c1ccccc1 (stereo not given),-23,-6,-4,i,3,-1,-1,0,
COc1ccc(Nc2ccc(C(=O)O)cc2[N+](=O)[O-])cc1,-2,-15,9,i,2,14,6,4,
O=C(CNC(=O)c1ccc(Cl)c([N+](=O)[O-])c1)OC1CCCCC1=O (stereo not given),-4,.,0,i,.,-3,2,1,
COc1ccc(C(=O)N(C)C2CCCN(Cc3ccccc3F)C2)cc1OC (stereo not given),-5,14,-11,i,17,-14,6,6,
CC(C)c1ccc(NC(=O)C(c2ccc3c(c2)OCO3)N2CCN(C(=O)c3ccco3)CC2)cc1 (stereo not given),.,-2,25,i,4,-3,-5,-11,
COc1ccc(N2Nc3n[nH]c(N)c3N2)cc1,-147,-3,-7,i,-5,1,6,1,
NCCCC[C@H]1NC(=O)[C@H](CCC(=O)O)NC(=O)c2cc([N+](=O)[O-])cc(I)c2OCC[C@@H](C(N)=O)NC1=O,.,23,-25,.,2,.,.,.,
O=c1cc(-c2ccncc2)oc2c1ccc1ccccc12,-7,3,25,i,8,-14,-15,-8,
CCOC(=O)O[C@]1(C(=O)COC(=O)CC)CC[C@H]2[C@@H]3CCC4=CC(=O)C=C[C@]4(C)[C@H]3[C@@H](O)C[C@@]21C,-12,.,1,.,.,-4,-2,2,
COC(=O)c1cc(C(=O)c2cc(Cl)ccc2O)coc1=N,17,-4,-7,i,-9,-3,-3,0,
CC1(C)Cc2c(C#N)c(NCCc3ccccc3)nc(-c3ccco3)c2CO1,.,10,3,i,17,-26,-7,-8,
Cc1cc(C)c(C#N)c(SCc2ccc(C#N)cc2)n1,.,-2,2,.,2,-6,-3,-1,
COc1ccccc1OCCNC(=O)c1cc([N+](=O)[O-])cc([N+](=O)[O-])c1,11,13,-3,i,-4,.,0,5,
Cc1nc2sc3c(c2c(=O)[nH]1)CCC3,-234,1,13,i,5,-20,5,4,
Cc1cccc(N2C(=O)CC(N3CCN(c4ccccc4)CC3)C2=O)c1 (stereo not given),.,0,-17,i,-6,-15,1,3,
Cc1ccccc1NC(=O)Oc1cccc(OC(=O)c2ccccc2)c1,-16,10,-2,i,14,-3,-1,1,
Cn1c2ccccc2c2ncn(CCCN3CCOCC3)c(=O)c21,-34,-3,2,i,-5,5,5,1,
CCSC1=NC(=O)/C(=C2/C=Cc3ccccc3N2CC)S1,.,-14,11,i,3,.,24,2,
COc1ccc(N2CCN(C(CNC(C)=O)c3ccc4c(c3)OCO4)CC2)cc1 (stereo not given),-34,-6,-4,i,13,-20,1,2,
O=C(NCc1ccc(Cl)cc1Cl)C1CC(=O)N(Cc2ccccc2)C1 (stereo not given),-4,-1,-4,i,8,.,3,0,
O=C(c1cccc(Br)c1)N1CCN(S(=O)(=O)N2CCCCC2)CC1,2,-3,.,i,14,-21,-2,1,
O=C(CCCCn1c(=O)[nH]c2ccccc2c1=O)N1CCN(c2cccc(C(F)(F)F)c2)CC1,83*,-1,-7,i,0,1,2,-7,
Cc1ccc(C)c(NC(=O)CCC(=O)NNC(=O)COc2cc(C)ccc2C)c1,7,-15,.,i,-4,-12,-1,-3,
Cc1ccc(NC(=O)c2ccc(Oc3ncccn3)cc2)cc1,-15,0,-6,i,-10,-6,4,2,
CCN(CC(=O)Nc1c(F)cccc1F)C(=O)CSCc1c(C)noc1C,.,.,-16,i,.,.,1,-1,
CCOC(=O)N1CCc2c(sc(NC(=O)CCS(=O)(=O)c3ccccc3)c2C(N)=O)C1,-16,-14,1,i,-6,22,-9,0,
O=C(c1ccccc1)N1CCN(Cc2ccc3c(c2)OCO3)CC1,16,2,-1,i,-11,-19,-4,3,
COc1ccc(S(=O)(=O)N2CCN(Cc3ccccc3OC)CC2)cc1,3,.,.,.,.,-15,-4,-4,
CCc1ccc(CNC(=O)C(=O)NCC2CCCO2)cc1 (stereo not given),13,9,4,i,-7,-1,2,3,
COc1ccc(-c2nnc(NC(=O)c3cccs3)s2)c(OC)c1,-22,55*,-6,.,1,-24,-1,0,eIF4H FP inh retest=61*;PABP polyA inh retest=45

# More entries
SMILES,Env fusion inh,eIF4H FP inh,CSC inhib,Rce1 inh,PABP polyA inh,UUG fidelity,MT1-MMP act inh,MT1-MMP act inh RFP,others
Cn1c(SCC(=O)Nc2ccc3c(c2)OCCO3)nnc1-c1ccccn1,-40,-4,-6,i,1,-13,0,7,
CCCOc1ccccc1C1CC(=O)NC2=C1C(=O)CCC2 (stereo not given),.,4,52,i,0,-15,-8,-15,
COc1ccc(S(=O)(=O)N2CCN(C(=O)c3ccc([N+](=O)[O-])o3)CC2)cc1,7,16,1,i,20,10,-1,-3,
COc1ccc(OC)c(C(=O)c2nc3c(n2O)CCCCC3)c1,12,0,-13,i,2,-26,1,1,
COc1ccc(NC(=O)c2cc(-c3cc(F)ccc3OC)n[nH]2)c(C)c1,5,.,.,.,.,-17,-1,2,
Cc1cc(Br)c(NC(=O)CCNC(=O)OCc2ccccc2)cc1C,-92,-9,-9,i,-8,-3,3,4,
COC(=O)c1cccc(CN2C(=O)SC(Nc3ccc(C)cc3)C2=O)c1 (stereo not given),-8,-15,5,i,6,.,-7,5,
Cc1c(C(=O)NCc2ccccn2)sc2nc(-c3ccccc3)cn12,-219,4,55,i,-13,-11,3,2,
COC(=O)CSc1nnc(NC(=O)CCc2ccccc2)s1,4,.,7,i,.,-13,2,1,
CCOc1ccc(-n2cnnn2)cc1S(=O)(=O)Nc1c(C)cccc1C,.,-5,7,i,-2,-8,5,7,
CCCCOC(=O)c1cccnc1,.,2,-9,i,4,-3,5,11,
CC1CCCCC1NC(=O)c1ccc(CSc2nc3ccncc3[nH]2)cc1 (stereo not given),2,-1,12,i,5,-20,0,-1,
O=C(NCCCN1CCCC1)Nc1cccc2ccccc12,.,-3,-9,i,-10,-4,6,17,
COc1ccc(C2=NN(C(=O)CCCC(=O)O)C(c3cn(-c4ccccc4)nc3-c3ccccc3)C2)cc1 (stereo not given),11,74*,-10,i,1,-13,15,-2,eIF4H FP inh retest=87*;PABP polyA inh retest=11
O=C(O)c1cc(NC(=O)c2ccco2)cc(NC(=O)c2ccco2)c1,-27,-6,2,i,8,-8,0,2,
OCCN1CCN(C2CCC(c3ccc(F)cc3)c3ccc(F)cc32)CC1 (stereo not given),11,.,83*,i,.,3,3,2,
Cc1cc(S(=O)(=O)N2CC(=O)N(CCc3ccccc3)C(=O)C2)ccc1F,.,-7,-2,i,9,-11,1,8,

# A draw from above in order of molecular weight, lowest first.
SMILES,Env fusion inh,eIF4H FP inh,CSC inhib,Rce1 inh,PABP polyA inh,UUG fidelity,MT1-MMP act inh,MT1-MMP act inh RFP,others
O=C(NCCCN1CCCC1)Nc1cccc2ccccc12,.,-3,-9,i,-10,-4,6,17,
COC(=O)c1cc(C(=O)c2cc(Cl)ccc2O)coc1=N,17,-4,-7,i,-9,-3,-3,0,
CC(NC(=O)C1CCN(S(=O)(=O)c2ccccc2)CC1)c1ccccc1 (stereo not given),-23,-6,-4,i,3,-1,-1,0,
